# High-throughput results: PubChem BioAssay, National Center for Advancing Translational Sciences (NCATS)
# CtBP-E1A blk: CtBP/E1A binding inhibition; AlphaScreen GST-E1A/His-CtBP binding, 1536-well; active compounds read low; control for the full effect not named in the record; 0.49% of 340,000 active; AID 651724; activity change, % (no concentration beside the values); in the data active means activity change below about -65%; inconclusive means about -30% to -65%; inactive means above about -30%; further: on the % scale 0 is the no-effect control and ±100 the full control effect
#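 AlphaScreen with 125 nM GST-E1A and 125 nM His-CtBP (5X stocks) in Tris pH 8.0, 300 mM NaCl, BSA, Tween 20, TCEP. Compounds preincubated 2 h at 37 deg C, then glutathione donor/nickel acceptor beads added for 1 h at 37 deg C in dark.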
# D2 potentiator: human D2 receptor positive allosteric modulation; 0.23% of 360,000 active; AID 624464; potentiation, % (no concentration beside the values); P14416; DiscoveRx D2 beta-arrestin cells, luminescence, 90 min; 100% = 57 uM dopamine signal; active = potentiation of 50% or more; inconclusive = 30% to 50%; inactive = 30% or less;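 further: compound concentration not given in the record; tested on top of an EC20 dose of dopamine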
# Target sequence (P14416 whole entry, looked up): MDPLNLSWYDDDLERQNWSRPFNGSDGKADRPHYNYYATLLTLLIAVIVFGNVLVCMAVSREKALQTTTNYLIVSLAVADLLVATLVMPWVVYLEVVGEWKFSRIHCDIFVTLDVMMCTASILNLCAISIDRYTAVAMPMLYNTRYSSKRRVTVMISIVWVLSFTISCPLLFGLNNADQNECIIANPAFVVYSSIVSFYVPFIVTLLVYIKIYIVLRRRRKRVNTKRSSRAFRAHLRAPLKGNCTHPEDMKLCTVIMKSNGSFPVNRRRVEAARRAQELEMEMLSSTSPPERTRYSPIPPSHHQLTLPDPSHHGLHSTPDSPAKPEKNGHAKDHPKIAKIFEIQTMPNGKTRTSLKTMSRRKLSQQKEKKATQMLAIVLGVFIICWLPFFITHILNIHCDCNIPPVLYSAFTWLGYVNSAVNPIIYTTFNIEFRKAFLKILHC
#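 PathHunter D2 cells, attached overnight at 37 deg C, received compound in DMSO plus dopamine at EC20 (50 nM final) for 90 min at 37 deg C. Beta-arrestin recruitment was read as luminescence after 1 h with detection reagent at ambient temperature.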
# Sfp inh: blocks B. subtilis Sfp PPTase activity; Q9F4F7; Biochemical Sfp PPTase activity, qHTS; Potency, µM, without a hit: max response, negative = inhibition, actives largely listed as inhibitors; 3.5% of 310,000 active; AID 1490; active means well fitted inhibition curve with a large enough effect; inconclusive means small, poorly fitted or top-dose-only effect, or another doubt; inactive means no such curve, though single readings can be large or run the other way;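 further: the enzyme is Sfp with the accession as filed and its product quenches rhodamine fluorescence; potency means the concentration at half of the fitted maximal effect; 0% = enzyme reaction without inhibitor and -100% = no enzyme wells; top concentration of the series not given in the record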
#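 After 15 min at room temperature with compound, 15 nM Sfp received 5 uM rhodamine-CoA plus 12.5 uM BHQ-2-ybbR (50 mM Hepes pH 7.6, 10 mM MgCl2). Rate came from the fluorescence difference over 30 min, ex 525/em 598 nm.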
# D2 ag: activates the human D2 dopamine receptor | DiscoveRx PathHunter D2 beta-arrestin, luminescence, 90 min; 100% = 57 uM dopamine signal | activation, % (concentration not given with the values) | 0.084% of 360,000 active; in the data active = activation above about 40%; inconclusive = about 15% to 40%; inactive = below about 15%; further: compound concentration not given in the record; the text of the record calls up to 30% inactive
#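 DiscoveRx PathHunter D2 beta-arrestin cells (2,100/well) attached overnight, then compound-stimulated 90 min at 37 C in HBSS/10 mM HEPES/0.1% Tween-20 buffer; beta-galactosidase complementation read by luminescence after 1 h at ambient temperature. Dopamine 57 uM final (EC100) as control.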
# Six1-Eya2 inh: inhibitors of human Six1/Eya2 interaction; 0.56% of 360,000 active; AlphaScreen GST-Six1/His-Eya2 binding, biochemical; active compounds read low; control for the full effect not named in the record; activity change, % (concentration not given with the values); Q15475+O00167; in the data active = activity change below about -65%; inconclusive = about -30% to -65%; inactive = above about -30%; further: on the % scale 0 is the no-effect control and ±100 the full control effect
#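 AlphaScreen luminescence read after one hour at 37 °C in darkness. Pin-transferred compounds met GST-Six1 and His-Eya2 protein (5X stock 250 nM/500 nM) plus glutathione donor and Ni-chelate acceptor beads (5X, 50 ug/mL).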
# TRPV1 PAM: human TRPV1 potentiation. TRPV1-expressing cells, Fluo-8 calcium influx, capsaicin EC20 potentiation; host cell line not named in the record; control for the full effect not named in the record. potentiation, % at 8.33 µM. AID 540277. 0.02% of 320,000 active; active means potentiation above 80%; inconclusive means 30% to 80%; inactive means below 30%; further: 0% is about no effect
#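 Cells expressing TRPV1 were dye-loaded with Fluo-8 and read kinetically: 10 s baseline, 3 min after compound (agonist portion), then 2 min after EC20 capsaicin (allosteric enhancer portion). Calcium-bound dye fluorescence at 480/520 nm.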
# PINK1 modulator: PINK1 expression modulation. PINK1 immunofluorescence, high-content cytometry, 24 h. Potency, µM (top dose mostly 76.6 µM), inactives show top-dose activation (PINK1 increase), hits mostly activators. 0.2% of 410,000 active; active = well fitted activation curve with a large enough effect; inconclusive = small, poorly fitted or top-dose-only effect; inactive = flat fitted curve, though single readings scatter; cell line not stated here;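 further: potency means the concentration at half of the fitted maximal effect; % of control where 0% means no effect; nearly all actives have a fitted effect of over 65% in size; a mitochondrial uncoupler was the plate control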
#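 Compound titrations (5 concentrations, 24 h) on a stable cell line; DMSO and CCCP controls. Endpoint: fixed-cell PINK1 immunofluorescence with mitochondrial, cell and nuclear markers, scanned by microplate cytometer.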
# * = called active by the depositor; ? = inconclusive; · = no result given; & = joins results of further samples; [ ] = remark or other dose.
SMILES,CtBP-E1A blk,D2 potentiator,Sfp inh,D2 ag,Six1-Eya2 inh,TRPV1 PAM,PINK1 modulator
Cn1ncc2c(NCCO)nc(Cl)nc21,3,1,·,1.0,0,·,0.7%
Cc1ccc(-c2ccc(/C=N\NC(=O)C3C(=O)NCC3c3ccccc3)o2)cc1Cl (stereo not drawn),-13,-23,50µM*,-4.5,-17,?,-1.8%
Cc1ccc(O)c(-c2cc(-c3cccc(Br)c3)n[nH]2)c1,-1,-1,9%,2.3,-4,3,11%
Cc1ccccc1NC(=O)COc1coc(CN2CCN(c3ccccc3)CC2)cc1=O,-12,6,·,?,-2,7,-1.2%
Cc1cc(C(=O)OCn2nnc3ccccc3c2=O)c(C)n1-c1ccccc1,-22,-11,-5%,-2.9,-29,6,2.3%
O=C(CC[C@H]1O[C@@H](n2cnc3c(NC(=O)c4ccccc4)ncnc32)[C@H](O)[C@@H]1O)NCC1CCN(Cc2ccccc2)CC1,11,-4,·,-0.6,6,·,1.4%
Cc1ccc(-c2nnn(CC(=O)N(c3ccccc3F)C(C(=O)NCC3CCCO3)c3c[nH]c4ccccc34)n2)cc1 (stereo not drawn),-12,-2,18%,-3.0,-7,0,8.7%
O=C(CCNC(=O)c1ccc([N+](=O)[O-])cc1)Nc1nccs1,·,7,12%,5.5,1,0,0.6%
O=C(Nc1ccc(Br)cc1Cl)Nn1cnnc1,11,-5,14%,-1.3,0,6,-3.3%
COc1ccc(C(=O)CSc2nnc(C3CC3)n2N)cc1,-20,-9,13%,0.5,-22,-10,10.0%[38.3 µM]
COc1ccc(OC)c(/C=C/C(=O)OCC(=O)N2CCN(S(=O)(=O)c3ccc(C)cc3C)CC2)c1,2,-11,·,-4.0,0,5,-1.6%
Cc1ccc(C2C(=O)N(C3CCC(C)CC3)CC(=O)N2C2CCCC2)cc1 (stereo not drawn),2,-10,-3%,0.1,1,-13,?
O=C(NCc1ccco1)c1cc(-c2ccccc2)on1,2,-5,11%,-1.0,-3,1,-0.2%[38.3 µM]
CCOC(=O)C1CCCN(CC(=O)Nc2c(C(=O)OC)[nH]c3ccc(Cl)cc23)C1 (stereo not drawn),-1,-26,8%,-1.9,-8,11,0.5%
CCOc1ccc(CNC(=O)c2ccco2)cc1,·,-2,-6%,-2.9,-1,-23,4.4%
O=C(CSc1ccc(Br)cc1)NC1CCS(=O)(=O)C1 (stereo not drawn),-14,8,·,-2.0,6,-1,-0.5%
C[C@H](CO)N1C[C@H](C)[C@@H](CN(C)C(=O)Nc2ccc(C(F)(F)F)cc2)Oc2ccc(NS(=O)(=O)c3ccc(F)cc3)cc2C1=O,-2,-9,·,0.3,8,·,1.1%
C[C@H](NC(=O)N1CCn2c1nc1ccccc12)C(=O)NCc1ccco1,-1,2,2%,2.3,4,-3,-1.4%
CC1(C(=O)O)C=CCN1C(=O)c1ccccc1 (stereo not drawn),-16,-7,-5%&2%,-2.3,4,7,-0.2%
CCOc1ccc(CCNC(=O)C2=C(C)C(=O)OC23CCC(C)CC3)cc1OCC (stereo not drawn),-14,-1,5%,-2.0,2,7,2.5%&2.2%

# Sfp inh: what is marked active above
structure	CtBP-E1A blk	D2 potentiator	Sfp inh	D2 ag	Six1-Eya2 inh	PINK1 modulator
Cc1ccc(-c2ccc(/C=N\NC(=O)C3C(=O)NCC3c3ccccc3)o2)cc1Cl (stereo not drawn)	-13	-23	50µM*	-4.5	-17	-1.8%

# (more compounds)
SMILES,CtBP-E1A blk,D2 potentiator,Sfp inh,D2 ag,Six1-Eya2 inh,TRPV1 PAM,PINK1 modulator
COc1cc(C=C(OC(C)=O)c2ccc3c(c2)OCO3)cc(OC)c1OC,-19,-4,·,6.8,-21,·,-1.2%
O=C(Nc1nncs1)C1CCCC1,0,-3,·,-3.7,-3,·,0.6%
CCOCCCNC(=O)Cn1nc(-c2ccccc2)ccc1=O,0,0,8%,-1.9,4,3,-0.2%
CC(=O)N1[C@H](Cc2ccccc2)C=C[C@]1(C)C(=O)NCCc1c[nH]c2ccccc12,-9,-44,-10%,-0.9,3,24,-0.1%
CC(C(=O)O)n1cc(Cl)cn1 (stereo not drawn),-7,4,20%,-3.3,13,3,-2.4%
COc1ccc(C(=O)Nc2cc(S(=O)(=O)N3CCCCC3)ccc2C)cc1,-3,-10,·,2.7,0,·,-0.4%
O=C(OCC(=O)N1N=C(c2ccc(Cl)cc2)CC1c1ccco1)c1ccccc1O (stereo not drawn),-8,-11,?,-4.1,-11,-15,-1.6%
CCN1C(=O)[C@H]2[C@H]3CN=C(SC)N3[C@@](Cc3ccccc3)(C(=O)OC)[C@H]2C1=O,3,-2,·,-2.6,4,·,-1.0%
CCNC(=O)NC(=O)C(C)OC(=O)c1oc2ccc(OC)cc2c1C (stereo not drawn),4,-3,21%,-1.7,2,-20,0.7%
O=S(=O)(c1ccc(N2CCCC2)nc1)N1CCCC1,19,-3,6%,-0.9,-5,2,1.9%
CCCS(=O)(=O)NC(=O)C1(C)CCN(C(=O)c2c(F)cccc2F)C1 (stereo not drawn),-5,-14,·,-4.3,5,·,1.9%
NC(=O)CC[C@@H]1NC(=O)[C@H](CO)NC(=O)c2cc([N+](=O)[O-])cc(I)c2OCC[C@@H](C(N)=O)NC1=O,1,-4,17%,-8.1,1,7,0.6%
OC(c1cccc(Cl)c1)c1nc(/C=C/c2ccccc2)cs1 (stereo not drawn),4,3,·,2.9,-2,·,7.4%
O=C1CC(NNc2nc3ccccc3s2)C(=O)N1c1ccccc1 (stereo not drawn),1,-18,4%,-1.5,1,3,15%[38.3 µM]
Cc1ccc(S(=O)(=O)N(C)c2ccc(OC(=O)COc3ccccc3)cc2)cc1,-17,-7,·,0.3,6,·,-0.5%
CC(=O)NC(=S)NNC(=O)COc1ccc([N+](=O)[O-])cc1,·,-8,-18%,6.4,2,5,-1.1%
O=C(O)c1ccc(-n2c(-c3ccc(Br)cc3)n[nH]c2=S)cc1,7,-6,?,-3.5,4,-2,0.6%
c1cn(-c2ncnc3sc4c(c23)CCCC4)cn1,-6,-2,-2%,-3.2,3,-2,0.8%
COc1ccc(NC(=S)Nc2ccc(S(N)(=O)=O)cc2)c(C)c1,-1,-3,50µM*,-0.3,17,-5,-1.4%
Cc1cccc(CSCc2ccc(C(=O)NCC3CCCO3)o2)c1 (stereo not drawn),2,-5,11%,-2.9,-4,-10,0.4%
COc1ccc2c(c1)c(C(=O)N/N=C/c1cccs1)c(C)n2C,1,-12,5%,-2.1,-4,-2,0.8%
O=C(/C=C\Nc1ccc2c(c1)OCO2)c1ccc2c(c1)OCO2,-3,-6,7%,3.2,-3,8,9.6%
COc1ccc(-n2c(Cn3c(=O)sc4ccccc43)nnc2SCC(=O)N2CCCCC2)cc1,-1,-3,18%,-5.1,1,0,0.2%
CCOC(=O)c1sc(NC(=O)c2cc3c(s2)CCC(C)C3)nc1C (stereo not drawn),5,-8,-5%,-4.6,14,-10,14%
COc1nc(OC)nc(N2CCC(C(=O)NC3CC3)CC2)n1,9,-4,9%,-0.4,3,1,1.4%
COc1ccc(C(=O)NC(=S)Nc2ccc3[nH]c(=O)[nH]c3c2)c(OC)c1,-15,-7,5%,-8.1,-12,0,0.9%
COc1ccc(Cn2c(CCC(=O)Nc3ccc(CC#N)cc3)nc3cccnc32)cc1,-3,-1,10%,-1.4,-2,-6,24%[38.3 µM]
O=C(c1cccc2nccnc12)N1CCCC(Nc2ccc(F)c(F)c2)C1 (stereo not drawn),-5,-18,11%,-1.0,-8,13,-0.7%
C=CCSc1nn2c(=O)c3ccccc3nc2s1,-21,-19,13%,-3.7,-19,-3,2.8%
CCN(CC(=O)Nc1ccccc1C(F)(F)F)C(=O)c1ccc2[nH]c3c(c2c1)CC(C)CC3 (stereo not drawn),-28,11,·,0.7,-19,11,-0.8%
COc1cccc(CC2(CO)CCCN(Cc3nc(-c4cccs4)oc3C)C2)c1 (stereo not drawn),·,-17,-2%,-1.0,2,3,1.3%
O=C(CN1CCCCC1)N/N=C/c1cccc(C(F)(F)F)c1,-13,-12,·,-5.2,-8,·,0.8%
CC1CCCCC1NC(=O)CN1CCC(NC(=O)c2ccc([N+](=O)[O-])cc2)CC1 (stereo not drawn),-4,5,11%,3.1,-2,-10,1.4%
Cc1ccc(C)n1-c1cccc(C(=O)Nc2ccccc2)c1,·,2,-11%,2.0,2,0,0.5%
COc1ccc(Cl)cc1NC(=O)C1CC(c2c(F)cccc2Cl)=NO1 (stereo not drawn),13,1,5%,-1.4,5,-15,8.5%
Cc1ccc(C(=O)Nc2ccccc2OC(F)F)cc1,15,-6,20%,-2.2,8,1,-0.5%[38.3 µM]
CC(C)C1Cc2[nH][nH]c(=O)c2C(c2ccc(Cl)cc2)O1 (stereo not drawn),1,·,·,·,-12,·,1.8%
Cc1cc(C)nc(SCc2csc(-c3ccccc3)n2)n1,14,-6,-17%,-4.0,28,-1,4.0%
COc1cc(OC)cc(C(=O)OCC(=O)NC(c2ccccc2)c2ccccc2)c1,·,-6,·,-5.2,3,-3,4.5%
Cc1ccc(SC[C@H](Cc2ccccc2)N2CCN(C)CCC2=O)cc1,-3,-8,-20%,-2.0,-3,-18,-1.1%
CC(=O)Nc1ccc(NC(=S)NC(=O)/C=C/c2ccccc2)cc1,2,-2,-23%,2.8,2,?,3.6%
N#Cc1c(NC(=O)CSc2nc3ccccc3c(=O)n2Cc2ccco2)sc2c1CCCC2,1,-10,-10%,-0.6,-6,11,2.1%
O=C(COc1cccnc1[N+](=O)[O-])Nc1ccc(F)cc1,-3,-1,·,-0.8,7,·,2.1%
CC(C)(C)C(=O)Nc1ccc(C(=O)Nc2cccc(Oc3ccc(C(=O)O)c(C(=O)O)c3)c2)cc1,·,6,16%,5.2,1,13,0.7%

# Among those listed so far, these have a CF3 group.
SMILES,CtBP-E1A blk,D2 potentiator,Sfp inh,D2 ag,Six1-Eya2 inh,TRPV1 PAM,PINK1 modulator
C[C@H](CO)N1C[C@H](C)[C@@H](CN(C)C(=O)Nc2ccc(C(F)(F)F)cc2)Oc2ccc(NS(=O)(=O)c3ccc(F)cc3)cc2C1=O,-2,-9,·,0.3,8,·,1.1%
CCN(CC(=O)Nc1ccccc1C(F)(F)F)C(=O)c1ccc2[nH]c3c(c2c1)CC(C)CC3 (stereo not drawn),-28,11,·,0.7,-19,11,-0.8%
O=C(CN1CCCCC1)N/N=C/c1cccc(C(F)(F)F)c1,-13,-12,·,-5.2,-8,·,0.8%
